quorum sensing = Vibrio cholerae quorum sensing activators, luminescence (AID 686977); V. cholerae quorum sensing reporter, luminescence, 6 h; higher luminescence means a stronger effect; most inactives read 0; one-dose luminescence at 50 µM unless noted; EC50 in µM for titrated hits; 9,400 tested, under 10 active;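 active = light above mean plus 3 SD and confirmed in a dose series; inconclusive = above that limit without a clear retest; inactive = below it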;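 note: raw light counts without normalisation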
An asterisk follows results filed as active; ? = inconclusive; [ ] = another dose, or the depositor's remark.

The opening 5 entries (preview)
SMILES | quorum sensing
CCOc1cccc(NC(=O)C2CC(=O)N(C)C(=Nc3cccc(F)c3)S2)c1 (stereo unspecified) | 0
CC(C)(C)C(=O)Nc1sc2c(c1-c1nc3ccccc3[nH]1)CCCC2 | 0
CCCCSc1nnc(-c2c[nH]c3ccccc23)n1C | 240
CC1Cc2ccccc2N1C(=O)C12CCC(C)(C(=O)C1)C2(C)C (stereo unspecified) | 0
O=C(COc1ccc(S(=O)(=O)NC2CCCCC2)cc1Cl)NCc1ccc2c(c1)OCO2 | 40

The list itself, from the first entry:
SMILES | quorum sensing
CCOc1cccc(NC(=O)C2CC(=O)N(C)C(=Nc3cccc(F)c3)S2)c1 (stereo unspecified) | 0
CC(C)(C)C(=O)Nc1sc2c(c1-c1nc3ccccc3[nH]1)CCCC2 | 0
CCCCSc1nnc(-c2c[nH]c3ccccc23)n1C | 240
CC1Cc2ccccc2N1C(=O)C12CCC(C)(C(=O)C1)C2(C)C (stereo unspecified) | 0
O=C(COc1ccc(S(=O)(=O)NC2CCCCC2)cc1Cl)NCc1ccc2c(c1)OCO2 | 40
Cc1ccc(C(=O)Nc2ccc(Cl)cn2)cc1 | 0
O=C(c1cccc(F)c1)N1CCN=C1SCc1cccnc1 | 40
CCC(C)(c1ccc(C=O)s1)c1ccc(C=O)s1 | 0
CCOc1cc(CNc2ccc3[nH]c(=O)[nH]c3c2)ccc1OCC(=O)NC(C)(C)C | 0
COC(=O)[C@H](Cc1ccccc1)NC(=O)Nc1ccc(C)cc1 | 0
O=c1ccc2cc(O)c(O)cc2o1 | ?
CCN(CC)CCOC(=O)c1ccc2c(c1)OCCO2 | 0
COc1cccc(Nc2nnc(SCn3nnc4ccccc4c3=O)s2)c1 | 0
CN1CCN2c3ccccc3Cc3ccccc3C2C1 (stereo unspecified) | 40[10 µg/mL]
CCCCCc1nc2ccccc2c(=O)n1-c1ccc(Cl)cc1[N+](=O)[O-] | 0
O=C(c1sc2ccccc2c1Cl)N(Cc1cccs1)C1CCS(=O)(=O)C1 (stereo unspecified) | 160
Cc1ccc(-c2csc(NC(=O)Cn3cnc4c3c(=O)n(C)c(=O)n4C)n2)cc1C | 0
Cc1nn(Cc2ccc([N+](=O)[O-])cc2)c(=O)n1N(C)c1ncc(C(F)(F)F)cc1Cl | 40
CCOC(=O)C1CCN(c2c([N+](=O)[O-])c(C(Cl)Cl)nn2-c2ccccc2)CC1 | 800
O=C1CC2(CCCC2)CC(=O)N1CCCCN1CCN(c2ncccn2)CC1 | 0[10 µg/mL]
CCc1c(C)[nH]c2c1C(=O)C(CN1CCOCC1)CC2 (stereo unspecified) | 0[10 µg/mL]
Cc1ccc2cc(CCNC(=O)C3CCCC3)c(=O)[nH]c2c1 | ?
CCN1CCN(C(=O)CSCc2nc(-c3ccc(OC)c(OC)c3)oc2C)CC1 | 0
O=C(O)CCC(=O)N1N=C(c2cccs2)CC1c1cn(-c2ccccc2)nc1-c1ccccc1 (stereo unspecified) | 40
O=c1cc(-c2ccc(O)cc2)oc2c(C3O[C@H](CO)[C@@H](O)[C@H](O)[C@H]3O)c(O)cc(O)c12 (stereo partly specified) | 0[10 µg/mL]
SMILES | quorum sensing
CCOC(=O)c1c(NC(=O)CN2CCOCC2)sc(C(=O)NC)c1C | 0
CCOc1ccc(NC(=O)N[C@@H](CCSC)C(=O)OC)cc1 | 0
O=C(c1ccccc1)N(Cc1ccc(F)cc1)C1CCS(=O)(=O)C1 (stereo unspecified) | 40
CNS(=O)(=O)c1cc(C(=O)NCc2ccco2)ccc1Cl | 0
CC1CCN(S(=O)(=O)c2ccc(Cl)cc2)CC1 | 0
COc1cc(/C=C/C(=O)N2CCC=CC2=O)cc(OC)c1OC | 40[10 µg/mL]
COc1ccc(C2C(C(C)=O)=C(O)C(=O)N2c2cccnc2)cc1OC (stereo unspecified) | 40
COc1ccc(C2CC(=O)C(C=NCCCN3CCOCC3)=C(O)C2)cc1 (stereo unspecified) | 200
CC1=C(/C=C/C(=O)O)C(C)(C)CCC1 | 0
O=S(=O)(c1ccc(N2CC=C(c3ccccc3)CC2)nc1)N1CCCC1 | 0
COc1cccc(-c2cc(C(=O)Nc3cc(C)nn3-c3ccccc3)no2)c1 | 0
COc1ccc(C(=O)N2CCCN(C)CC2)cc1S(=O)(=O)N1CCCc2ccccc21 | ?
CCCCNC(=O)NC1(C(F)(F)F)Oc2ccccc2O1 | 0
CCN(CC)C(=O)Cn1c(=O)n(-c2ccccc2)c(=O)n1CC(=O)N(CC)CC | 0
CCOCCCNC(=O)c1cn(CC(C)C)c(=O)c2cc(OC)c(OC)cc12 | 80
O=[N+]([O-])c1ccc(O)c(NC(=S)Nc2ccccc2)c1 | 0
CC(C)(Oc1ccc(CCNC(=O)c2ccc(Cl)cc2)cc1)C(=O)O | 40[10 µg/mL]
O=C(Nc1ccc(S(=O)(=O)N2CCCCCC2)cc1)c1ccco1 | 80
COc1cc(OC)c(C2CC(=O)N3CN(C)CSC3=C2C#N)cc1OC (stereo unspecified) | 0
Oc1ccc(-c2nc3ncccn3c2Nc2ccc3c(c2)OCCO3)cc1 | 0
C=CCN(c1ccccc1)S(=O)(=O)c1cccc(C(=O)O)c1 | 0
Cc1ccc(C(=O)Nc2cccc(C(=O)O)c2)cc1S(=O)(=O)N1CCOCC1 | 40
Cc1cc(O)c(CN2CCN(c3ccccc3)CC2)cc1C | 40
CCOc1ccc(N(CC(=O)Nc2cccc(OC)c2)S(=O)(=O)c2c(C)noc2C)cc1 | 0
CCN(C(=O)Cc1cccs1)c1nnc(-c2cc(OC)c(OC)c(OC)c2)s1 | 40
SMILES | quorum sensing
COc1ccc(NC(=O)CSc2nc3c(c(=O)n2-c2ccccc2OC)SCC3)cc1 | 0
Cc1ccc(C2CC(c3ccccc3)n3ncnc3N2)cc1 (stereo unspecified) | 120
COc1ccc2[nH]c(C)c(CCN(Cc3cccs3)C(=S)Nc3ccccc3)c2c1 | 0
CCCCn1c(=NC(=O)c2ccco2)c(C(=O)OCC)cc2c(=O)n3ccccc3nc21 | 40
O=C(C1CCC(=O)N1C1CCCCC1)N1CCC2(CC1)OCCO2 (stereo unspecified) | 0
CCC[C@@H]1C[C@@H](C(=O)N[C@@H]([C@H]2O[C@H](SC)[C@H](O)[C@@H](O)[C@@H]2O)[C@@H](C)O)N(C)C1 | 0[10 µg/mL]
CCCCOC(=O)C1=C(C)Nc2nnnn2C1c1ccccc1Cl (stereo unspecified) | 40
O=C(CSCc1ccccc1)N1CCN(c2cccc(C(F)(F)F)c2)CC1 | 0
Cc1cccc(N2CCN(C(=O)Cc3cn(C)c4ccccc34)CC2)c1C | 0
CCCOCCOC(=O)c1[nH]c2c(c1C)C(=O)CC(c1cc(OC)ccc1OC)C2 (stereo unspecified) | 0
Clc1cccc(CSc2nc3ccncc3[nH]2)c1 | 0
CC(=O)Nc1ccc(S(=O)(=O)N2CCN(Cc3ccncc3)CC2)cc1 | 40
Cc1onc(-c2ccccc2Cl)c1C(=O)N(C)C1CCCCC1 | 0
O=C(NCCC1=CCCCC1)C1CCCN(S(=O)(=O)c2cnc[nH]2)C1 (stereo unspecified) | 40
O=c1cc(-c2ccccc2)nc2nc[nH]n12 | 40
O=c1[nH]c2ccccc2nc1C(Cl)c1ccccc1 (stereo unspecified) | 40
CC(C)(C)C1CCC(OC(=O)c2ccncc2)CC1 (stereo unspecified) | 0
O=C1c2ccsc2SCCN1Cc1c(Cl)cccc1Cl | ?
O=C(CSc1nnc(-c2cccnc2)n1-c1ccccc1)N1CCN(c2ccc(F)cc2)CC1 | 0
CCOC(=O)c1[nH]c(C)c(C(=O)OCC(=O)N(CC)C2CCS(=O)(=O)C2)c1C (stereo unspecified) | 0
Cc1ccccc1-n1nnnc1SCC(N)=O | 0
CCN(c1ccccc1)S(=O)(=O)c1ccc(OCC(=O)Nc2cc(C)on2)cc1 | 0
CCOC(=O)C1=C(C)N=C2SC(C)C(=O)N2C1c1ccc(OC(C)=O)c(OCC)c1 (stereo unspecified) | 0
O=C(O)Cc1ccc(-c2ccccc2)cc1 | 40[10 µg/mL]
Cc1c(C(=O)NCc2ccco2)sc2nc(-c3ccccc3)cn12 | 0
SMILES | quorum sensing
COc1ccc(NS(=O)(=O)c2ccc3c(c2)oc(=O)n3C)c(OC)c1 | ?
O=C(CCCCCNc1nc(=S)[nH]c2ccccc12)N1CCN(c2ccccn2)CC1 | 0
CN(C(=S)NC(=O)c1ccccc1Br)C1CCCCC1 | 760
O=C(C(Cc1ccccc1)n1cccc1)N1CCN(c2ccccc2)CC1 (stereo unspecified) | 0
C=CCNc1nc2c(c(=O)n(C)c(=O)n2C)n1CC | 40
COc1ccc2c(c1)N(C[C@H](C)CN(C)C)c1ccccc1S2 | 0[10 µg/mL]
CC1(C)O[C@@H]2C[C@H]3[C@@H]4C[C@H](F)C5=CC(=O)C=C[C@]5(C)[C@H]4[C@@H](O)C[C@]3(C)[C@]2(C(=O)CO)O1 | 0[10 µg/mL]
O=C(N1CCOCC1)C(F)(F)C(=O)N1CCOCC1 | 0
CC(C)(CO)NC(=O)CCCOc1ccc(Cl)cc1Cl | 0
CC(=O)C1C(c2ccccc2Cl)NC(=O)NC1(O)C(F)(F)F (stereo unspecified) | ?
O=C(O)Cc1ccc(C(=O)c2ccc(Cl)cc2)s1 | 0
O=C(C1CCCN(c2nnc(-n3cccc3)s2)C1)N1CCN(c2ccccc2)CC1 (stereo unspecified) | 40
O=C(NCCn1cc(SCC(=O)N2CCOCC2)c2ccccc21)c1ccccc1 | 40
CCN(CC)c1ccc2c(c1)C(=O)N(C)C2=O | 0
Cc1nn(CCC(=O)NNC(=S)NCC(C)C)c(C)c1Br | 0
CC(Sc1nncn1C)C(=O)Nc1nnc(C(C)C)s1 (stereo unspecified) | 0
COc1ccc(NC(=O)CN2CCOCC2)cc1 | 40
O=C(CCCCC(=O)Nc1c(I)cc(I)c(C(=O)O)c1I)Nc1c(I)cc(I)c(C(=O)O)c1I | 40[10 µg/mL]
COc1ccccc1N1CCN(C(=O)CSc2ncccc2-c2nc3ccccc3[nH]2)CC1 | 40
CC(C)NC(=O)CN1CCN(c2ncccn2)CC1 | 0
O=C(O)c1[nH]c2ccccc2c1CC(=O)N1CCOCC1 | 0
CCCCCCCCNC(C)C(O)c1ccc(SC(C)C)cc1 (stereo unspecified) | 0[10 µg/mL]
O=C1CCc2cc(S(=O)(=O)NC(Cc3ccccc3)C(=O)NCC3CCCO3)ccc2N1 (stereo unspecified) | 0
CCCCc1ccc(Nc2ncnc3nc[nH]c23)cc1 | 0
Cc1n[nH]c(C)c1-c1nc2ccccc2[nH]1 | 0

Four of the compounds above, as tab-separated lines.
canonical_smiles	quorum sensing
O=C1CCc2cc(S(=O)(=O)NC(Cc3ccccc3)C(=O)NCC3CCCO3)ccc2N1 (stereo unspecified)	0
Cc1nn(CCC(=O)NNC(=S)NCC(C)C)c(C)c1Br	0
O=C(NCCn1cc(SCC(=O)N2CCOCC2)c2ccccc21)c1ccccc1	40
O=C(O)c1[nH]c2ccccc2c1CC(=O)N1CCOCC1	0

Back to the main list; the 7 compounds before the break are reprinted first.
SMILES | quorum sensing
COc1ccccc1N1CCN(C(=O)CSc2ncccc2-c2nc3ccccc3[nH]2)CC1 | 40
CC(C)NC(=O)CN1CCN(c2ncccn2)CC1 | 0
O=C(O)c1[nH]c2ccccc2c1CC(=O)N1CCOCC1 | 0
CCCCCCCCNC(C)C(O)c1ccc(SC(C)C)cc1 (stereo unspecified) | 0[10 µg/mL]
O=C1CCc2cc(S(=O)(=O)NC(Cc3ccccc3)C(=O)NCC3CCCO3)ccc2N1 (stereo unspecified) | 0
CCCCc1ccc(Nc2ncnc3nc[nH]c23)cc1 | 0
Cc1n[nH]c(C)c1-c1nc2ccccc2[nH]1 | 0
Cc1cc(C)c2c(N)c(-c3nc4ccccc4[nH]3)sc2n1 | 240
CCOC(=O)Cc1csc(NC(=O)CSc2nnc(-c3ccc(OC)cc3)n2C)n1 | 280
O=c1cc(N2CCN(c3ccccc3)CC2)[nH]c(=O)n1Cc1ccc(F)cc1 | 40
COCCn1c(C)cc(C(=O)COC(=O)c2c(C)nn(Cc3ccccc3)c2C)c1C | 40
N#Cc1nc(Cc2cccc3ccccc23)oc1NCCN1CCOCC1 | 0
O=C(NCNC(=O)NC1C(=O)NC(=O)N1CO)NC1C(=O)NC(=O)N1CO (stereo unspecified) | 0[10 µg/mL]
CCN(CC)CCOC(=O)C1(C2CCCCC2)CCCCC1 | 0[10 µg/mL]
O=S(=O)(NCC(c1cccnc1)N1CCN(c2ccc(F)cc2)CC1)c1ccc(F)cc1 (stereo unspecified) | 40
Clc1ccc2c(c1)C(N1CCNCC1)=Nc1ccccc1O2 | 0[10 µg/mL]
CCC1CCCCN1C(=O)CSc1nnc(-c2ccc(Cl)cc2)o1 (stereo unspecified) | 0
CC(C)(O)c1nnn(-c2ccccc2)c1C(F)(F)F | 0
Cc1nc(NCc2ccco2)c2oc3ccccc3c2n1 | 0
CCOC(=O)N1CCC(N2C(=O)c3ccccc3C2Nc2cc(Cl)c(OC)cc2OC)CC1 (stereo unspecified) | ?
COCc1cc(C)nc(SCC(=O)Nc2cc3c(cc2C#N)OCO3)c1C#N | 840
O=C(NC1CCCCC1)N1CCN(c2ncccn2)CC1 | 0
CC1CCc2nn(CC(=O)NC3CCCC3)cc2C1 (stereo unspecified) | 40
COc1cc(OC)cc(OCC(O)Cn2cnc3cc(C)c(C)cc32)c1 (stereo unspecified) | 0
CC(OC(=O)c1cc2sccc2n1C)C(=O)NCc1cccs1 (stereo unspecified) | 0
O=C(C1CCCCC1)N1CCN=C1SCc1cccnc1 | 40
Cc1cc(C(F)F)n2ncc(C(=O)N3CCC(C(N)=O)CC3)c2n1 | 0
NC(=O)C1=NOC(CNc2ncc(C(F)(F)F)cc2Cl)C1 (stereo unspecified) | 160
O=C1c2ccccc2CC1Sc1nnc(-c2ccccn2)o1 (stereo unspecified) | 0
C[C@]12CC[C@@H]3c4ccc(O)cc4CC[C@H]3[C@@H]1C[C@@H](O)[C@@H]2O | 0[10 µg/mL]
COc1ccc(-n2nnnc2S(=O)(=O)CC(=O)N2CCCCC2)cc1 | 0
O=C(NCc1ccccc1)C1CCCN1S(=O)(=O)c1cccc2cccnc12 (stereo unspecified) | 240
CC1CCCCC1NC(=S)Nc1ccc(SC(F)F)cc1 (stereo unspecified) | 0
Cc1cc(C(=O)Nc2c(C)nn(Cc3ccc(F)cc3)c2C)on1 | 0

Only part of the results is shown, so the mix of outcomes need not match the whole.
